HPGD inh = inhibitors of human 15-hydroxyprostaglandin dehydrogenase (HPGD). P15428. purified HPGD, NADH fluorescence kinetic, PGE2 substrate. Potency, µM, for inactives: top-dose activity change, negative = inhibition, hits mostly inhibitors. 150,000 compounds, 4.3% hits. AID 894; active = well fitted inhibition curve with a large enough effect (not every such curve was filed as active); inconclusive = small, poorly fitted or top-dose-only effect, or another doubt; inactive = no such curve, though single readings can be large or run the other way;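 note: top concentration of the series not given in the record; plate controls included wells without enzyme; inactives centre near -10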
Target sequence (P15428 whole entry, looked up): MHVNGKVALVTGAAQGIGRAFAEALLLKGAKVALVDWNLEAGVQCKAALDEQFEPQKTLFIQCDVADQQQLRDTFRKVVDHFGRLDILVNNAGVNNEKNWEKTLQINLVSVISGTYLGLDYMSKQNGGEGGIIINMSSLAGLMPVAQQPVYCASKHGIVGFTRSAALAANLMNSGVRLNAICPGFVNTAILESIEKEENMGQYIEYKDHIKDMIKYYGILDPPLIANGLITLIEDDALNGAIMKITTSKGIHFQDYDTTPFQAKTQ
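NADH formation kinetics: reaction with 30 uM PGE2 and 1 mM NAD+ (final), 20 nM enzyme, Tris-HCl pH 8 with Tween 20, after 15 min compound preincubation at room temperature. Fluorescence change, last versus first of five reads.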
The depositor's hits bear a star; ? = inconclusive. % is set by controls: 0 for no effect and ±100 for the full control effect; potency is the fitted concentration of half-maximal effect. This is a subset (hit frequency here may not be typical).

HPGD inh,Compound
-5.6%,CC#CCN1c2ccccc2[C@]23C[C@@H](C(=O)OC)N(S(=O)(=O)c4ccc(C)cc4)C2=NC(C(=O)OC)=C(C(=O)OC)[C@H]13
-12.7%,Fc1ccc(NC(=S)N2CCCCC2)cc1
-7.8%,Cc1ccc(C(=O)N/C(=C\c2cccs2)C(=O)N2CCCCCC2)cc1
-11.5%,O=C(NCc1ccc2c(c1)OCO2)C1CCCN(S(=O)(=O)c2cccnc2)C1 (stereo unspecified)
-26.8%,C/C(N)=C(/C#N)C(=O)CSc1ccc2c(c1)OCCO2
-11.1%,CCCC(=O)N(c1ccc2oc(=O)sc2c1)S(=O)(=O)c1ccccc1
-14.5%,CSc1cccc(NC(=O)c2cnccn2)c1
-14.4%,CCCC/C=C/C(NC(=O)Oc1cccc(C(F)(F)F)c1)c1ccccc1 (stereo unspecified)
-4.0%,CCn1c(=N)n(CCO)c2ccccc21
-16.2%,CCOc1ccccc1Nc1ncccc1C(=O)O
-16.3%,O=C(CSc1nc(-c2ccccc2Cl)ns1)Nc1ccc2c(c1)OCO2
-2.3%,CC(O)c1ccc2c(c1)OCCOCCN(C)CCOCCO2 (stereo unspecified)
-4.3%,CCOC(=O)n1n[n+]([O-])c2ccccc21
?,COc1ccc2nc3sc(C(=O)N4CCN(C)CC4)cc3cc2c1
-7.8%,O=C(NC(=S)N(CCCCO)C1CCCCC1)c1sc2ccccc2c1Cl

Reprinted at random: five records from the list.
HPGD inh,Compound
-14.5%,CSc1cccc(NC(=O)c2cnccn2)c1
-26.8%,C/C(N)=C(/C#N)C(=O)CSc1ccc2c(c1)OCCO2
-12.7%,Fc1ccc(NC(=S)N2CCCCC2)cc1
-4.0%,CCn1c(=N)n(CCO)c2ccccc21
-5.6%,CC#CCN1c2ccccc2[C@]23C[C@@H](C(=O)OC)N(S(=O)(=O)c4ccc(C)cc4)C2=NC(C(=O)OC)=C(C(=O)OC)[C@H]13

(more compounds)
HPGD inh,Compound
-10.7%,CC1CCN(S(=O)(=O)c2ccc3c(c2)N(CC(=O)NCc2cccnc2)C(=O)CS3)CC1
-11.5%,O=C1N(Cc2ccc3c(c2)OCO3)c2ccccc2C1(O)c1c[nH]c2ccccc12 (stereo unspecified)
-7.8%,CN(c1ccccc1)S(=O)(=O)c1ccc(C(=O)OCC(=O)N2CCOCC2)cc1
3.7%,O=C(NCc1ccc2c(c1)OCO2)c1ccc(CS(=O)(=O)c2ccc(Br)cc2)o1
-21.7%,O=C(N/N=C/c1ccccc1O)C1(O)c2ccccc2-c2ccccc21
-9.7%,CCCS(=O)(=O)N1CCCC(C(=O)NC(C)c2ccc3c(c2)OCCO3)C1 (stereo unspecified)
-20.1%,Cc1ccc(NC(=O)c2sc3ccccc3c2Cl)nc1
-3.5%,O=C(CSc1nnc(-c2ccc3c(c2)OCO3)o1)Nc1ncc(Cl)cc1Cl
?,O=c1cc(-c2ccc(O)cc2)oc2cccc(O)c12
-21.6%,O=C(COC(=O)CCCOc1ccc(Cl)cc1Cl)NCc1ccc(F)cc1
-12.4%,Cc1cc(C(=O)N/N=C/c2sccc2C)no1
-8.1%,COc1ccc(/C(C)=N/Nc2cc(C(F)(F)F)ccc2Cl)c(OC)c1
-8.7%,CCn1c(C)c(C(C)=O)c(N2CCN(c3ccccc3)CC2)nc1=S
-4.0%,O=C(O)CCCCCN1C(=O)CSC1=S
?,O=C(Nc1ccccc1-c1nnc(SCc2ccc(Cl)cc2Cl)o1)c1ccccc1

Part of the list above in order of molar mass, smallest number first:
HPGD inh,Compound
?,O=c1cc(-c2ccc(O)cc2)oc2cccc(O)c12
-8.7%,CCn1c(C)c(C(C)=O)c(N2CCN(c3ccccc3)CC2)nc1=S
-11.5%,O=C1N(Cc2ccc3c(c2)OCO3)c2ccccc2C1(O)c1c[nH]c2ccccc12 (stereo unspecified)
-7.8%,CN(c1ccccc1)S(=O)(=O)c1ccc(C(=O)OCC(=O)N2CCOCC2)cc1
-10.7%,CC1CCN(S(=O)(=O)c2ccc3c(c2)N(CC(=O)NCc2cccnc2)C(=O)CS3)CC1

The listing continues:
HPGD inh,Compound
-10.8%,CC(NC(=O)c1cccs1)C(c1cccs1)N1CCOCC1 (stereo unspecified)
-7.2%,CCOC(=O)N1CCC(N(CCCOC)C(=O)Nc2ccc(CC)cc2)CC1
-16.7%,Cc1ccc(CNC(=O)c2oc3ccc(S(=O)(=O)N4CCC5(CC4)OCCO5)cc3c2C)cc1
-1.0%,Cc1c(CN2CCCCC2C)c(=O)n(-c2ccccc2)n1C (stereo unspecified)
-8.5%,CC1/C(=N/O)CC(c2ccccc2)N(C)C1c1ccccc1 (stereo unspecified)
-23.4%,CN1C(=O)/C(=C/c2ccccc2OCc2ccc(F)cc2)N(C)C1=S
?,Cc1cccc(NC(=S)N/C(=N/S(=O)(=O)c2ccccc2)c2ccccc2)c1
-2.3%,CCCNS(=O)(=O)c1ccc(CCC(=O)N2CCOCC2)cc1
-5.4%,Cc1cc(C)nc(N(C#N)Cc2ccc(Br)cc2)n1
-8.5%,Cc1cc(=O)[nH]c(SCC2COC3(CCCCC3)O2)n1 (stereo unspecified)
?,O=C(Nc1cc(C(F)(F)F)ccc1Cl)c1cc2nc3c(c(C(F)(F)F)n2n1)CCCC3
-9.6%,O=C(NCCCCc1ccccc1)C1CC(c2cccc([N+](=O)[O-])c2)=NO1 (stereo unspecified)
-16.5%,O=C(Nc1cccc(C(F)(F)F)c1)c1n[nH]c(Cn2cncn2)n1
-1.9%,CC(C)(C)c1ccc(/C=C/C(=O)Nc2nncs2)cc1
-28.2%,Cc1ccc(C(=O)Nc2nccs2)cc1S(=O)(=O)N1CCCCC1

A different layout for some results above:
CCOC(=O)N1CCC(N(CCCOC)C(=O)Nc2ccc(CC)cc2)CC1
  HPGD inh = -7.2%

Cc1ccc(CNC(=O)c2oc3ccc(S(=O)(=O)N4CCC5(CC4)OCCO5)cc3c2C)cc1
  HPGD inh = -16.7%

Cc1c(CN2CCCCC2C)c(=O)n(-c2ccccc2)n1C (stereo unspecified)
  HPGD inh = -1.0%

CC1/C(=N/O)CC(c2ccccc2)N(C)C1c1ccccc1 (stereo unspecified)
  HPGD inh = -8.5%

The results go on:
HPGD inh,Compound
-19.8%,Cc1ccc(/C=N/NC(=O)c2cc(C3CC3)nc3ccccc23)o1
?,O=C(CCc1nc(-c2ccccc2)c(-c2ccccc2)o1)OCc1ccc(Br)cc1
-3.8%,CCCC(CCC(=O)NC1CCCCC1)C(=O)O (stereo unspecified)
-3.9%,O=C(NCc1ccccc1)C1CC2CCCC(C1)C2=O (stereo unspecified)
-9.4%,CN(C)/C=C(/C(=O)c1ccc(Cl)cc1Cl)S(=O)(=O)c1ccccc1
-12.3%,O=C(Nc1ccccc1)OC(CN1CCCCC1)C(F)(F)F (stereo unspecified)
-12.1%,COc1ccc(C)cc1N(C(=O)c1ccc(F)cc1)c1nc2ccccc2s1
-16.8%,CCN(CC)C(=O)CSc1nnc(-c2ccccc2)n1N
-18.1%,CCOc1cc(C(=S)N2CCCCC2)ccc1OCC(=O)NCc1ccccc1
1.2%,CCc1ccc(CNC(=O)C2CC(=O)N(CCc3ccc(C)cc3)C2)cc1 (stereo unspecified)
-11.6%,COc1c(Cl)cc(Cl)cc1/C=C/C(=O)c1ccc(NC(=O)c2cccs2)cc1
-10.5%,COC1C(O)C(CO)OC1n1cnc2c(=O)[nH]c(N)nc21 (stereo unspecified)
-1.3%,CN(CCCC(=O)NCc1ccco1)S(=O)(=O)c1ccccc1
?,O=C1CSC(c2nn(-c3ccccc3)cc2-c2cc3ccccc3oc2=O)N1Cc1ccco1 (stereo unspecified)
-8.6%,CC1CN(C(=S)SCC(=O)c2ccc(Cl)cc2)CC(C)O1 (stereo unspecified)
-3.4%,O=C(NC(=O)N1CCN(c2ccc(F)cc2)CC1)c1ccccc1
-10.0%,COc1cc(S(=O)(=O)N(C)C)ccc1Br
-14.4%,CCOC(=O)Nc1ccc(S(=O)(=O)Nn2cnnc2)cc1
-0.4%,COC(=O)C1C(=O)NCC1c1ccccc1 (stereo unspecified)
-13.8%,Cc1ccc2nc(Cl)c(C3CC(c4cccs4)=NN3S(C)(=O)=O)cc2c1 (stereo unspecified)
-18.1%,O=C1C2CCCN2C(c2ccc(Cl)cc2)N1c1nccs1 (stereo unspecified)
?,CCOC(=O)c1sc2nc(CC(C)C)c3c(c2c1N)CCC3
-12.5%,Cc1cc(=O)n2ccsc2n1
-8.4%,COC(=O)C(CN)c1c[nH]c2ccc(OC)cc12 (stereo unspecified)
?,CCOC(=O)c1c(NC(=O)CN2CCCCC2)sc2c1CCN(C(=O)OCC)C2
-12.6%,CCOC(=O)c1cnn(-c2ccccc2)c1NC(=O)C(F)(F)C(F)(F)C(F)(F)F
-25.9%,O=C(CCSc1nnc2ccccn12)Nc1ccc(F)cc1
-4.1%,Oc1ccc(Nc2nc(NCC3CCCO3)c3ccccc3n2)cc1 (stereo unspecified)
-3.3%,O=C(Nc1ccc2c(c1)OCCO2)C1CCN(C(=O)c2ccc(Cl)cc2)CC1
?,CC(=O)N1CC(c2ccccc2)C(c2ccc(Cl)cc2)=N1 (stereo unspecified)
-14.3%,Cn1c(=O)n(C)c2cc(CN3C(=O)OC(C)(C)C3(C)O)ccc21 (stereo unspecified)
-17.6%,COc1cccc(OCCCCSc2ncccn2)c1
-9.2%,Cc1ccc(Nc2ccc(C(F)(F)F)cc2[N+](=O)[O-])cc1
-10.7%,CCCCCCC1C(C#N)=C(N)OC2=C1C(=O)CC(C)(C)C2 (stereo unspecified)
-0.9%,CC12CN3CCN(CC(C3)/C1=N\N=C1/C3CN4CCN(C3)CC1(C)C4)C2
-12.4%,CCOC(=O)Cc1csc(NC(=O)CSc2nnnn2-c2ccc(C)c(C)c2)n1
?,CCCC(=O)OCCNc1cc(SCc2ccco2)c2nonc2c1[N+](=O)[O-]
-6.3%,O=C(NCc1ccco1)C1CCCN(S(=O)(=O)c2cnc[nH]2)C1 (stereo unspecified)
-3.8%,N#CNC(=Nc1cccc(F)c1)SCc1ccccc1F
-12.0%,Cc1ccccc1Nc1nc(N)nc(COC(=O)CCS(=O)(=O)c2ccccc2)n1
-1.0%,O=S(=O)(Cc1ccc(Cl)cc1)N1CCN(Cc2ccccc2)CC1
?,O=C(Nc1ccccc1)c1cccc(-c2nnc(-c3ccccc3)o2)c1
-18.1%,COc1ccc(CCNC(=O)c2ccc3c(=O)n(Cc4ccco4)c(=S)[nH]c3c2)cc1OC
-11.2%,COc1ccc(N2CCN(c3oc(COc4ccc(Cl)cc4)nc3C#N)CC2)cc1
25.1µM*,Cc1ccc(C(=O)NC(O)C(Cl)Cl)cc1 (stereo unspecified)
-2.7%,C=CCN(C(=O)Cn1ncc2c1-c1cc(C)ccc1OC2)c1ccccc1
-5.3%,O=C1c2ccccc2C(=O)C1c1ccncc1
-9.6%,CCC1(CC)NC(=S)N(Nc2ccccc2)C1=O
-19.9%,Cc1cc(Cl)ccc1NC(=S)NCc1ccccc1
-18.1%,CCCn1c(=O)[nH]c(=O)c2c1nc(-c1ccc3c(c1)OCCO3)n2CCN1CCOCC1
-18.1%,Fc1ccccc1COc1ccccc1/C=N/Nc1nc(N2CCCC2)nc(N2CCCC2)n1
-8.3%,COc1ccc(N(C(=O)c2ccccc2OC)C2C=CS(=O)(=O)C2)c(OC)c1 (stereo unspecified)
-1.6%,Cc1cc(C(=O)N2CCc3ccccc32)c2ccccc2n1
-8.2%,CCn1nnnc1SCC(=O)c1cccc(OC)c1
-15.2%,C/C(=C\C(=O)c1ccc(Br)cc1)NCc1ccccc1
6.3%,Fc1ccccc1N1CCN(C(c2ccccn2)c2nnnn2C2CCCCC2)CC1 (stereo unspecified)
-8.5%,COC(=O)C(C)N(C(=O)c1cccc(Cl)c1)c1c(C)cccc1C (stereo unspecified)
?,CC(C)(C)c1ccc(-c2n[nH]c(=S)n2C2CCCC2)cc1
?,CC(NC(=O)C1CCC(CNc2c(N3CCOCC3)c(=O)c2=O)CC1)c1ccccc1 (stereo unspecified)
-10.9%,Nc1ccc2oc(CCc3ccccc3)nc2c1

(listing goes on)
HPGD inh,Compound
?,CCn1cc([N+](=O)[O-])c(C(=O)N2N=C3/C(=C/c4cccs4)CCCC3C2c2cccs2)n1 (stereo unspecified)
-7.8%,Cn1c(NC(=O)c2ccccc2)c(-c2cccs2)c(=O)c2ccccc21
28.2µM*,CN(C(=O)c1ccccc1Cl)C1CCCCC1
-13.7%,CC(C)(O)C#Cc1ccc(C(=O)N2CCC(C(N)=O)(N3CCCCC3)CC2)cc1
17.8µM*,CC1CCN(C(=O)c2ccc(-n3cnnn3)cc2)CC1
-4.6%,CCCCc1nc2c(c3c1C[C@H](C)OC3)CN(C(=O)NCCCC(=O)OCC)CC2
-1.5%,Cc1cc(C(=O)COC(=O)CC2Sc3ccccc3NC2=O)c(C)n1-c1ccccc1 (stereo unspecified)
?,COc1ccc(/C=N/NC(=O)c2cc(-c3ccc4c(c3)OCO4)n[nH]2)cc1OC
-12.5%,CC(C)(CO)NS(=O)(=O)c1ccc2c(c1)oc(=O)c1cc(S(=O)(=O)NC(C)(C)CO)ccc12
-26.8%,COc1ccc(C2C(C(C)=O)=C(C)N=c3s/c(=C\c4ccco4)c(=O)n32)c(OC)c1 (stereo unspecified)
-8.1%,Cc1ccc(C)c(-n2c(CNc3ccc(F)cc3)nnc2SCC(N)=O)c1
-4.4%,CCOC(=O)Cc1csc(NC(=O)CSc2cc(Cl)ccc2Cl)n1
-14.4%,O=C(CCNS(=O)(=O)c1cccc2nsnc12)N1CCN(c2ccccn2)CC1
-29.4%,CCOC(=O)CSC1=N/C(=C\c2cc(OC)c(OC)c(OC)c2)C(=O)N1C
0.6%,O=C(Cn1nc(Cc2ccncc2)c2ccccc2c1=O)N1CCN(C(=O)c2ccco2)CC1
-2.1%,CC(C)CC(=O)Nc1cc(NC(=O)CC(C)C)cc(C(=O)NC(C)(C)C)c1

Compound activity (PubChem)
